Screening results as filed in PubChem.
VDR inh – blocks the human vitamin D receptor | P11473 | VDR-SRC2-3 peptide fluorescence polarization, 2 h | Potency, µM, without a hit: max response, negative = inhibition, actives largely listed as inhibitors | hit rate 0.93% among 400,000; active = well fitted inhibition curve with a large enough effect; inconclusive = small, poorly fitted or top-dose-only effect, or another doubt; inactive = no such curve, though single readings can be large or run the other way; note: series mostly up to about 120 µM
Target sequence (P11473 whole entry, looked up): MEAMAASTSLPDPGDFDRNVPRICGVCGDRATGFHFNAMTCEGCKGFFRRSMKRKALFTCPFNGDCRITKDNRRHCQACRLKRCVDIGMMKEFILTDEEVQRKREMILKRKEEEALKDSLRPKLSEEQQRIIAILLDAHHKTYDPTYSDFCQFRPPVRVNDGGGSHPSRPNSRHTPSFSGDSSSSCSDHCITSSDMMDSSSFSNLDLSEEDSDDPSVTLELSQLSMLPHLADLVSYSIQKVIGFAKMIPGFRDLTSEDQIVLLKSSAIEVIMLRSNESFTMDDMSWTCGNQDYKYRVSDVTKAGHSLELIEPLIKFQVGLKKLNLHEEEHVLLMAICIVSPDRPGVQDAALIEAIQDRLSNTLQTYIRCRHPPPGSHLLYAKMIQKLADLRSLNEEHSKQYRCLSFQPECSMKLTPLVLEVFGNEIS
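VDR–SRC2-3 interaction, FP format. Cmpds 23 nl via pintool, brief spin, 2 h ambient incubation.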
An asterisk follows results filed as active; u = inconclusive; & = joins results of further samples. % is set by controls: 0 for no effect and ±100 for the full control effect; potency is the fitted concentration of half-maximal effect. Only part of the results is shown. The share of hits here may be higher or lower than overall.

Start of the listing, in advance:
canonical_smiles | VDR inh
N#C/C(=C(\O)Cc1ccccc1)c1nc2ccccc2[nH]1 | -0.4%
COc1cc(CN2CCNC(=O)C2CC(=O)N2CCCCO2)cc(OC)c1 (configuration not stated) | -4.0%
C#Cc1ccc2c(c1)C(=O)N(C)Cc1c(C(=O)OCCCOC(=O)c3ncn4c3CN(C)C(=O)c3cc(C#C)ccc3-4)ncn1-2 | 2.4%

The list itself, previewed entries included:
canonical_smiles | VDR inh
N#C/C(=C(\O)Cc1ccccc1)c1nc2ccccc2[nH]1 | -0.4%
COc1cc(CN2CCNC(=O)C2CC(=O)N2CCCCO2)cc(OC)c1 (configuration not stated) | -4.0%
C#Cc1ccc2c(c1)C(=O)N(C)Cc1c(C(=O)OCCCOC(=O)c3ncn4c3CN(C)C(=O)c3cc(C#C)ccc3-4)ncn1-2 | 2.4%
O=C(Nc1cccc(Cl)c1)N1CCN(Cc2ccccc2)CC1 | -12.1%
CCn1cc(-c2ccnc3cc(C(=O)O)nn23)c(C)n1 | -0.5%
CCC1Oc2ccccc2N(CC(=O)NCCc2ccc(OC)c(OC)c2)C1=O (configuration not stated) | 1.4%&9.9%
CCOC(=O)CCCNc1ccc([N+](=O)[O-])cc1[N+](=O)[O-] | 10.0%
CCOCCCNC(=O)c1c(NC(=O)Cc2coc3ccc(C)cc23)sc2c1CCC2 | 8.2%
Cc1ccccc1C(=O)N1CCN(c2ccc([N+](=O)[O-])c(NCc3ccco3)c2)CC1 | 9.5%
CCN1CCN(CCCNC(=O)Cn2c(-c3cccs3)cc3cc(Cl)ccc32)CC1 | 15.9%
CC(C)NCC1CCc2cc(CO)c([N+](=O)[O-])cc2N1 (configuration not stated) | -7.1%
CCOc1ccccc1C(=O)Nc1cc2c(cc1N1CCCCC1)n(C)c(=O)n2C | -4.5%
CC(C)c1ccc(NC(=O)COc2ccccn2)cc1 | -13.9%
COC(=O)Cc1ccc(NC(=S)N2CCN(c3ccc(OC)cc3)CC2)cc1 | u
COc1cc(Cl)c(C)cc1NC(=O)CCCN1C(=O)CCC1=O | -14.0%
C=CCSc1nnc(CNC(=O)c2ccc(Cl)cc2)n1CC | -0.2%
CC(=O)c1ccc(NC(=O)c2noc3c2CCc2ccccc2-3)cc1 | -8.5%
COc1ccc(C(=O)C[n+]2ccccc2C)cc1 | 31.6µM*
CCCNC(=S)N1CCC(NC(=O)C2CCCCC2)CC1 | u
Oc1ccccc1/C=N/Nc1nccnc1Cl | 3.3%
O=c1[nH]nc(SCc2nnc(-c3cccc(Cl)c3)o2)n1C1CCCCC1 | -5.0%
O=C(NCc1ccc(Cl)cc1)c1ccc(CSc2nc3ccncc3[nH]2)cc1 | 3.5%
CCOC(=O)C1CCN(C(=O)CSc2n[nH]c(-c3ccc(F)cc3)n2)CC1 | 8.3%
COc1cccc2cc(C(=O)N(Cc3ccccc3)CC3CCCO3)c(=O)oc12 (configuration not stated) | -3.1%
Cc1ccc(OCc2cc(=O)n3cc(C)sc3n2)c(C)c1 | -3.2%
CCOC(=O)COc1ccccc1/C=N\NC(=O)c1cc2c(ccc3ccccc32)o1 | -6.7%
CCC1([N+](=O)[O-])COC(c2ccc(C)cc2)OC1 (configuration not stated) | -1.0%
CCOc1cc2c(cc1OCC)CN(CC(=O)Nc1ccccc1C(=O)NC1CC1)CC2 | -2.6%
CN(C)Cc1cc(C(F)(F)F)ccc1C(O)(c1ccccc1)c1ccccc1 | -8.8%
Clc1ccccc1C1CC(c2ccccc2)=Nc2ccccc2N1 (configuration not stated) | 16.9%
COc1cccc(NC(=O)CCc2c(C)nn(-c3ccc(N4CCOCC4)nn3)c2C)c1 | -11.0%
O=C(CSc1n[nH]c(=O)[nH]c1=O)NCC1CCCCC1 | 6.8%
CCCCCCCCCC(=O)OCC(O)CO (configuration not stated) | 0.8%
CCNC(=O)c1ccc2c(c1)sc1nc(-c3cccc(OC)c3)cn12 | 5.1%
CCCC(C)C(=O)Nc1ccc(NC(C)=O)cc1 (configuration not stated) | 13.9%
Cc1ccccc1NC(=O)CCCSc1nc2ccccc2s1 | 2.9%
Cc1nc([N+](=O)[O-])cn1CC(O)c1ccc(-c2ccccc2)cc1 (configuration not stated) | 4.7%
CCn1c(N)c(C(=O)NC2CCCCC2)sc1=S | -0.2%
Cc1nnc(NC(=O)c2ccco2)s1 | -5.2%
COc1ccc(-n2c(CN3CCN(c4ccc(F)cc4)CC3)nc3ccc([N+](=O)[O-])cc3c2=O)c(OC)c1 | -18.8%
N#Cc1cccc(NC(=O)Cn2cnc(S(=O)(=O)N3CCOCC3)c2)c1 | u
COc1ccc(-c2noc(CNC(=O)c3ccco3)n2)cc1 | 5.8%
CCOc1ccc(N2CC(c3nc4ccccc4n3Cc3cccc(C)c3)CC2=O)cc1 (configuration not stated) | 4.6%
CN(C[C@@H](CC1CCCCC1)N(C[C@H](Cc1ccccc1)N(CCc1ccccc1)N=O)N=O)N=O | -6.7%
CCCCc1ccc(C2C3=C(CC(C)(C)CC3=O)NC3=C2C(=O)c2ccccc23)cc1 (configuration not stated) | -17.4%
O=C1OC[C@@H]2CCCN2C(=O)[C@H](CC(=O)N(CCO)Cc2ccccc2)C/C=C\CC[C@H]1Cc1ccc(F)cc1 | -21.2%
O=C(Nc1ccc(F)cc1)c1cc2cc(Cl)ccc2[nH]1 | -3.8%
CC[C@H](C)[C@H](NC(N)=O)C(=O)NNC(=O)c1ccc(COc2cccc3cccnc23)cc1 | -5.5%
CCc1ccc(NC(=O)CSC2=Nc3ccccc3C3=NC(CC(=O)NCc4ccccc4)C(=O)N23)cc1 (configuration not stated) | 6.5%
Cc1cccc(N2CCN(C(=O)CN3C(=O)NC4(CCCCCC4)C3=O)CC2)c1C | 2.4%
COCCCNC(=O)C1CCC(Cn2c(=O)c3sccc3n(C)c2=O)CC1 (configuration not stated) | -8.0%
COc1cc(C(=O)N=c2sc3c(C)ccc(OC)c3n2C)cc(OC)c1OC | -2.5%
CSc1ncccc1C(=O)N(C)CC(=O)Nc1cccc(F)c1 | 0.3%
Cn1c(N)c(C#N)c(C#N)c1-c1ccccc1 | 16.4%
Cc1c(N2C(=O)C(C)SC23C(=O)Nc2ccccc23)c(=O)n(-c2ccccc2)n1C (configuration not stated) | 2.2%
COc1ccc(-c2csc3ncnc(N4CCN(S(=O)(=O)c5ccc(C)cc5)CC4)c23)cc1 | 15.3%
O=C(CNC(=O)c1ccccc1)NCC(=O)OCc1ccccc1Cl | -18.7%
O=C(COc1cccc(-n2cnnn2)c1)Nc1ccc([N+](=O)[O-])cc1 | 8.9%
Cc1ccc(OCC(=O)N(Cc2ccccc2)c2ccccn2)cc1 | -15.9%
CCCN(CC(=O)Nc1ccc(F)c(F)c1F)C(=O)Cc1ccc(S(=O)(=O)N2CCOCC2)s1 | u

Further results
canonical_smiles | VDR inh
CC/C=C\C/C=C\C/C=C\C/C=C\C/C=C\C/C=C\CCC(=O)NCC(=O)O | -12.5%
COc1ccc(-c2cn(Cc3ccc(C(=O)c4ccccc4)cc3)nn2)cc1 | -17.2%
COc1ccccc1/C=C1/C(=O)N(c2ccc([N+](=O)[O-])cc2)N=C1C | u
COc1ccc(CNC(=O)CSc2ncnc3ccccc23)cc1OC | -16.6%
Cn1c(=O)oc2cc(S(=O)(=O)NCCC(=O)Nc3ccc(F)cc3F)ccc21 | -20.1%
COc1ccc(C(=O)C2CCCN(Cc3cccn3-c3nccs3)C2)cc1F (configuration not stated) | 12.6%
CC1CCN(C(=O)COC(=O)C2CCN(S(=O)(=O)c3c(Cl)cccc3Cl)CC2)CC1 | -2.8%
C/C(=C\C(=O)c1ccccc1)Nc1ccc2c(c1)OCO2 | 5.6%
O=C(CC1C(=O)NCCN1Cc1c(F)cccc1Cl)NCCCn1ccnc1 (configuration not stated) | -6.6%
CC1CCN(C(=O)CN2C(=O)C(=O)N(C)C2=O)c2ccccc2S1 (configuration not stated) | -9.2%
COc1ccc(C2NCCn3cccc32)cc1 (configuration not stated) | -4.4%
CN(CCC#N)C(=O)COC(=O)c1c2c(nc3ccccc13)/C(=C/c1ccco1)CC2 | -29.5%
COCCCNC(=O)CN1C(=O)c2cccnc2Sc2ccccc21 | 10.3%
[O-]C1=N[N+](=C(c2ccccc2)c2ccccc2)C1 | 15.8%
Cc1cccc2nc(CSc3nnnn3-c3ccccc3)cn12 | 8.5%
O=C(NCCN1CCOCC1)N1CCOCC1 | 21.9%
CC(C)CCN1C(=O)c2ccc(C(=O)OCC(=O)N(C)C3CCS(=O)(=O)C3)cc2C1=O (configuration not stated) | -12.5%
CCc1ccc(C(=O)COC(=O)c2cccc(N3C(=O)c4c(C)nc5ccccc5c4C3=O)c2)cc1 | -9.4%
CCOc1ccc(CN(C)C(=O)CN2C(=O)NC(c3ccccc3)(c3ccccc3)C2=O)cc1 | -1.8%
O=C(Nc1c(F)c(F)c(F)c(F)c1F)NC1CCCCC1 | -9.4%
COc1ccc(/C=N/n2c(=S)n(C)c3ccccc32)cc1OC | 0.3%
CCc1nnc(NC(=O)CSc2n[nH]c(-c3ccccc3O)n2)s1 | -3.4%
CCN(c1ccccc1)S(=O)(=O)c1ccc(C(=O)Nc2nnc(CSC)o2)cc1 | -3.0%
Cc1nc2scc(C)n2c(=O)c1S(=O)(=O)Nc1ccc(N2CCOCC2)cc1 | -8.4%&13.6%
CCNS(=O)(=O)c1ccc(CCC(=O)N2CCN(c3ccccc3)CC2)cc1 | -9.7%
COc1coc(/C=C/C(=O)O)cc1=O | 10.8%
Clc1ccc(-n2cc(-c3ccc(Br)cc3)[n+]3c2CCCCC3)cc1 | 1.4%
O=C(N/N=C/c1cn(Cc2ccccc2)c2ccccc12)c1ccncc1 | 0.2%
Cc1cccc(C(=O)NCCc2nnc(SCC(=O)Nc3cccc(C(=O)O)c3)n2C)c1 | 1.6%
O=C(c1ccc(Cl)cc1)c1nnc(-c2ccncc2)o1 | 11.6%
CC(C)n1c(O)c(/C=C2\C=Nc3ccccc32)sc1=Nc1ccccc1 | -17.8%
CC1CCC(NC(=O)CN2C(=O)c3ccccc3S2(=O)=O)CC1 (configuration not stated) | -7.8%
CC(C)N(Cc1ccccc1)C(=O)/C=C/c1ccccc1[N+](=O)[O-] | 29.0%
C=CCn1c(SCC(=O)O)nnc1-c1ccccc1 | -3.7%
Cc1ccc(C)c(-c2[nH]ncc2CN2CCCC(CO)(Cc3ccccc3C)C2)c1 (configuration not stated) | -9.1%
S=c1[nH]nc(COc2ccccc2)n1-c1ccc(Cl)cc1 | -5.7%
COc1cccc(-c2nc(CS(=O)(=O)CC(=O)Nc3ccc(F)cc3F)c(C)o2)c1 | -19.0%
O=C(/C=C/c1cc([N+](=O)[O-])ccc1OC(F)F)Nc1cccc(OC(F)F)c1 | -21.8%
O=C(NCCCn1ccnc1)c1cc(-c2ccc(Br)cc2)on1 | -10.5%
COc1ccc(CCN(C)C(=O)c2c(C)noc2C)cc1OC | -4.5%
COc1ccc(Cl)cc1NC(=O)CSC1=Nc2ccccc2C2=NC(CCC(=O)NCc3ccc(F)cc3)C(=O)N12 (configuration not stated) | -20.6%
CN(c1ccccc1)S(=O)(=O)c1cccc(C(=O)OCC(=O)Nc2ccc(C(N)=O)cc2)c1 | -0.1%
Cc1cccc(NC(=O)CSc2nnc([C@H](C)NC(=O)OC(C)(C)C)o2)c1C | u
COc1ccc(NC(=S)N(CCCN2CCC(C)CC2)Cc2cccs2)cc1 | 11.7%
CS(=O)(=O)N1CCN(c2ccc(NC(=O)c3ccc([N+](=O)[O-])o3)cc2)CC1 | 11.2%
COc1ccc(CNC(=O)CN(Cc2ccccc2)C(=O)CCC(=O)Nc2nccs2)cc1 | -20.2%
Cc1ccc(S(=O)(=O)NN2C(=O)c3ccccc3NC2c2ccco2)cc1 (configuration not stated) | -9.8%
O=C(CSc1n[nH]c(-c2ccccc2Cl)n1)N1CCN(c2ccccc2)CC1 | 18.1%
O=C(c1ccccc1)N1N=C(c2ccccc2)CC1c1ccccc1 (configuration not stated) | 11.8%
Cc1c(Cl)ccc2c1NC(=O)C21NC(CCC(N)=O)[C@H]2C(=O)N(c3ccc(Cl)cc3)C(=O)[C@H]21 (some centres not stated) | 5.4%
CC(C)CC(NC(=O)OC(C)(C)C)c1cn([C@@H](CCC(=O)OC(C)(C)C)C(=O)N2CCN(C(=O)OC(C)(C)C)CC2)nn1 (some centres not stated) | 2.6%
CCOC(=O)c1ccc(NC(=O)C2(N3C(=O)c4ccccc4C3=O)CCCC2)cc1 | 4.9%
CCNC(=O)CC1C(=O)N(c2ccccc2)C(=O)N1CCc1ccc(OC)c(OC)c1 (configuration not stated) | 6.2%
CC(C)C(NC(=O)C12CC3CC(CC(C3)C1)C2)C(=O)N/N=C/C1=C(N2CCOCC2)C(=C\c2ccc([N+](=O)[O-])cc2)/CC1 (configuration not stated) | 11.6%
COc1ccc(-n2ncc3c2CC(C)(C)CC3NC(=O)c2cnc(C)cn2)cc1 (configuration not stated) | -17.8%
COc1ccc(OC)c(C2NC(=O)NC(C)=C2C(=O)Nc2ccc(C)cc2C)c1 (configuration not stated) | 5.0%
O=C(c1ccc2ncsc2c1)N1CCN(c2ccc(O)cc2)CC1 | 4.2%
O=C(NCCOc1ccc(Cl)cc1)c1cccc(S(=O)(=O)N2CCCC2)c1 | 2.5%
COc1ccc(Cn2ccnc2SCC(=O)NCc2ccco2)cc1 | -4.0%
CNC(=O)C(=O)NCCc1ccc(Cl)cc1 | 18.5%

Next section:
canonical_smiles | VDR inh
CN(C)c1ccc(C(CNC(=O)COc2ccccc2)N2CCOCC2)cc1 (configuration not stated) | 9.1%
CC1CCN(c2nc3ccc(C(=O)NCc4ccccc4)cc3s2)CC1 | 18.8%
c1nc(N2CCCCC2)c2[nH]cnc2n1 | -11.7%
CC1Cc2c([nH]c3ccccc23)C(=O)N1 (configuration not stated) | -1.6%
COc1ccc(OCCSc2nnc3sc4ccccc4n23)cc1 | -7.0%
